NPYLR7 ag – activates Aedes aegypti NPYLR7 receptor | HEK293T NPYLR7/Galpha15, GCaMP6s calcium fluorescence | AID 1259423 | activation, % at 10 µM | 270,000 compounds, 0.15% hits; in the data active = activation above about 40%;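 note: 0% = vehicle and 100% = reference agonist at the receptor; some compounds past the cut are filed as inactive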
NPYLR7 ag max-min – second read-out of NPYLR7 ag, no call of its own (marks repeat the call); activation, %; measured here: Max-Min RFU normalised activation; some inactives read as strong as hits;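 span of the calcium signal over five minutes; 0% = vehicle and 100% = native peptide agonist; compound fluorescence can raise it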
* = called active by the depositor; & = joins results of further samples. A portion of the library; the hit share may differ from the screen's.

Start of the listing, in advance (two entries):
Values run as follows: NPYLR7 ag | NPYLR7 ag max-min
(1) Cc1ccc(-c2nc(C(N)=O)c3[nH]c(=O)n(-c4ccc(C)c(C)c4)c3n2)cc1
    -3 | -6
(2) CCOC1CCN(C(=O)Nc2cc(F)ccc2OC(C)C)CC1
    1 | 1

The whole of this part (from the top)
Values run as follows: NPYLR7 ag | NPYLR7 ag max-min
(1) Cc1ccc(-c2nc(C(N)=O)c3[nH]c(=O)n(-c4ccc(C)c(C)c4)c3n2)cc1
    -3 | -6
(2) CCOC1CCN(C(=O)Nc2cc(F)ccc2OC(C)C)CC1
    1 | 1
(3) Cc1ccccc1N=c1oc2cc(O)ccc2cc1C(N)=O
    -5 | -6
(4) COc1ccc2nc(C=Cc3cc(Br)c(O)c(OC)c3)sc2c1
    81* | 77*
(5) Cc1ccccc1CN1CCC(NS(=O)(=O)c2cc(F)ccc2C)CC1
    12 | 8
(6) CC(=O)N1CCN(C2c3ccccc3CCc3ccccc32)CC1
    17 | 6
(7) O=C(Cn1cc([N+](=O)[O-])cn1)n1cc(Cl)cn1
    -2 | -4
(8) COc1ccc(N2CCNC(C)C2=O)c(OC)c1 (stereo not drawn)
    -2 | 5
(9) CCNC(=O)c1cc(=O)c(OCc2ccccc2)cn1C
    9 | 7
(10) COc1ccc(CC(=O)Nc2ccc(-c3nn[nH]n3)cc2)c(Cl)c1
    0 | -2
(11) C#CCNC(=O)C[C@@H]1O[C@H](CNCc2ccc(C(=O)O)cc2)[C@H]2OC(C)(C)O[C@H]21
    -3 | -11
(12) CCCCCN(CC(=O)N(CCCC)Cc1cccn1Cc1ccc(Br)cc1)C(=O)c1ccc(Cl)cc1
    -3 | 13
(13) CNCc1cc2ccccc2o1
    2 | 7
(14) Cc1cc(C)cc(NC(=O)Cc2ccc(OC(C)(C)C(=O)O)cc2)c1
    28 | 11
(15) CC(C)(C)c1ccc(C2SCCN2C(=O)c2ccccc2Cl)cc1 (stereo not drawn)
    -2 | -2
(16) CCCCCCCCCCCCCCCC(=O)NCCO
    5 | -39
(17) O=S(=O)(NCCCn1ccnc1)c1ccc2ccccc2c1
    9 | 4
(18) COc1cccc(C(=O)NCCC(=O)N2[C@@H]3CC[C@H]2CN(C)C(=O)C3)c1
    -4 | -6
(19) CCN(CC)C(=O)Oc1ccc2c(ccn2Cc2ccc(/C=C/c3ccccc3)cc2)c1-c1ccc(F)c(Cl)c1
    20 | 10
(20) Fc1cccc(-n2nnnc2SCc2coc(-c3ccccc3)n2)c1
    30 | 26
(21) Cc1cccc(C)c1Oc1ncccc1CNc1ccnc(N)n1
    23 | 22
(22) CCOC(=O)c1cc(C)[nH]c(=S)c1C#N
    -2 | 0
(23) COc1cccc(C(=O)N2CCC(C3(Cc4ccc(F)cc4)NC(=O)N(C4CCOC4)C3=O)CC2)c1 (stereo not drawn)
    3 | -3
(24) CC1(c2ccc3c(c2)OCO3)NC(=O)N(CC(=O)c2ccc3c(c2)-c2ccccc2C3)C1=O (stereo not drawn)
    -4 | -3
(25) CCOC(=O)N1CCN(C(=O)C2CCC(=O)N(Cc3cccc(C(F)(F)F)c3)C2)CC1 (stereo not drawn)
    19 | 6
(26) COc1ccc(Oc2c(CN(Cc3ccco3)CC(C)O)c(C)nn2-c2ccccc2)cc1 (stereo not drawn)
    8 | 8
(27) COc1ccc(CCN(C)c2cc(Cl)nc(SCc3cccc(C(=O)NCc4cccc(C(F)(F)F)c4)c3)n2)cc1OC
    6 | 16
(28) CCC(C)NC(=O)N1CCSC12C(=O)N(Cc1c(F)cccc1F)c1ccc(OC)cc12 (stereo not drawn)
    7 | 12
(29) Cc1ccc(C(=O)NC2C(=O)Nc3c2ccc(Cl)c3Cl)cn1 (stereo not drawn)
    7 | 6
(30) O=C(NN1CCCCC1)c1ccc(S(=O)(=O)N2CCCCCC2)cc1
    11 | 16

Values by screen from above.
Nos. 16 to 25 in NPYLR7 ag max-min: -39, 4, -6, 10, 26, 22, 0, -3, -3, 6
Nos. 16 to 25 in NPYLR7 ag: 5, 9, -4, 20, 30, 23, -2, 3, -4, 19

(list continues)
Values run as follows: NPYLR7 ag | NPYLR7 ag max-min
(31) O=C(CCSC/C=C/c1ccccc1)Nc1ccccc1F
    1 | -1
(32) O=C(CC(c1ccccc1)c1ccccc1)NC(c1ccc(F)cc1)c1ccc(SCc2ccccc2)cc1 (stereo not drawn)
    -6 | -9
(33) CN(C)CCOC1c2ccccc2C=Cc2ccccc21
    5 | 6
(34) O=C(NC1CCc2cccnc21)c1cn[nH]n1 (stereo not drawn)
    2 | 3
(35) CN(CC(=O)Nc1ccccc1Br)c1ncccc1C#N
    3 | 0
(36) CN(Cc1ncc[nH]1)C(=O)Cn1nnc(-c2ccccc2)n1
    32 | 25
(37) N=C1C(c2nc3ccccc3[nH]2)C(=O)CN1CCCN1CC(=O)C(c2nc3ccccc3[nH]2)C1=N (stereo not drawn)
    -7 | -8
(38) Cc1ccc(OCC(=O)NCC(c2ccc3c(c2)CCCN3C)N2CCN(C)CC2)cc1 (stereo not drawn)
    6 | 3
(39) CC(C)(C)C(=O)[C@@H]1[C@H]2C3COC(O3)C(=O)[C@@H]2[C@H]2C=Cc3ccccc3N21 (stereo partly drawn)
    -1 | -4
(40) Cc1cn2c3c(=O)n(Cc4cccc(Cl)c4)c(=O)n(C)c3nc2n1Cc1ccco1
    3 | 4
(41) CC(C)c1cc(NC(=O)c2ccc(CN3CC[C@H](O)C3)cc2)n(C)n1
    -3 | -4
(42) CCCC(=O)Nc1cccc(NCCOc2ccccc2F)c1C
    -1 | -4
(43) CSc1nc2n(n1)C(c1ccc(O)cc1)C1C(=O)CC(c3ccccc3O)CC1=N2 (stereo not drawn)
    1 | 49
(44) CN(C)C(=O)C12CCC(C)(C(=O)O1)C2(C)C (stereo not drawn)
    5 | 2
(45) CCCCNc1ncnc2sc3c(c12)CCCC3
    1 | 3
(46) CC(=O)Nc1ccc(S(=O)(=O)Oc2ccc(CN(Cc3ccco3)C(=O)c3ccccc3F)cc2)cc1
    0 | 7
(47) Clc1ccc(Cn2cc(-c3nc(-c4ccc5nc[nH]c5c4)no3)nn2)cc1
    12 | -5
(48) COc1ccccc1CN(CCN1CCOCC1)Cc1nc(C(=O)NC2CC2)co1
    19 | 24
(49) COc1ccc(-c2ccc(C(=O)NCC3CCOCC3)c3occc23)c(C)c1
    10 | 13
(50) CCC(Sc1ccc2nnc(-c3cccnc3)n2n1)C(=O)O (stereo not drawn)
    -4 | -4
(51) COc1ccc(NS(=O)(=O)c2ccc3c(c2)OCCO3)cc1OC
    10 | 13
(52) Cn1ccnc1-c1ccc(N2CCCC(OCc3cccnc3)C2)nn1 (stereo not drawn)
    16 | 13
(53) Cc1cccnc1CN1CCN(C(=O)c2cc(C(C)C)on2)CC1
    -1 | -1
(54) O=C(Nc1cnc2n1CCCC2)c1ccncn1
    1 | 3
(55) COc1cc2c(Nc3ccc(NC(=O)c4ccccc4)cc3)ncnc2cc1OCCCN1CCOCC1
    -16 | -17
(56) C=CCN(CC#Cc1ccccc1)C(=O)c1coc2c1C(=O)CCC2
    8 | 1
(57) NCC1CC(=O)N(c2ccccc2)C1 (stereo not drawn)
    -2 | -1
(58) COc1ccc(CN(C)S(=O)(=O)c2ccc3c(c2)CCCC3)c(OC)c1OC
    -5 | -2
(59) COCCN(Cc1ccc(C)cc1)Cc1ccccn1
    6 | 3
(60) CCOC(=O)c1cnc(-c2ccc(OC)cc2)nc1NCc1cccc(F)c1F
    7 | 4
(61) O=C(Cc1ccccc1O)N1CCCC(CCc2ccc(F)cc2F)C1 (stereo not drawn)
    7 | 6
(62) O=C(CC1CC2CCC1C2)Nc1ccc(Oc2ncccn2)cc1 (stereo not drawn)
    4 | 1
(63) Cc1ccc(C(=O)CSc2nccn(-c3ccc(F)cc3)c2=O)c(C)c1
    0 | -7
(64) CC1(C)CC(NC(=O)CCc2cc(C(C)(C)C)c(O)c(C(C)(C)C)c2)CC(C)(C)N1
    -11 | -15
(65) COc1ccc(-c2nn(-c3cc(C)ccc3C)c(OC(C)=O)c2-c2ccc(NC(=O)c3ccccc3OC)cc2)c(OC)c1
    16 | 21
(66) Cc1cc(C)n(-c2ccc(SC(C)C(=O)NC(C)(C#N)C(C)C)nn2)n1 (stereo not drawn)
    1 | -3
(67) CC(O)(CC(=O)NCC(=O)O)CC(=O)OC1C(O)CC2(C)C3=C(CCC2C1(C)C)C1(C)CCC(C(CO)CCC(O)C(C)(C)O)C1(C)C(O)C3 (stereo not drawn)
    -4 | -13
(68) O=C(NCc1ccsc1)c1ccc(-c2cc(-c3ccc(Cl)cc3Cl)[nH]n2)cc1
    -1 | 8
(69) CCN(CCn1cccn1)c1nc2nonc2nc1NCc1cccs1
    6&3 | 12&-1
(70) Oc1c(C(Nc2ccccn2)c2cccnc2)ccc2cccnc12 (stereo not drawn)
    1 | 0
(71) Cn1nnc(NCc2ccc(OCc3ccccc3)cc2)n1
    -1 | -1
(72) O=C(C1CCCC1)N1CCc2ccc(NC(=O)C3(c4ccccc4)CCOCC3)cc21
    -1 | 1
(73) CCN(C)c1cccc(NC(=O)NCC2(O)CCN(C)CC2)c1
    4 | 5
(74) Cc1ccc2c(c1)N(C(=O)c1cn(C)nc1C)CC(C)O2 (stereo not drawn)
    -1 | -2
(75) CC1CN(C(=O)Cn2cnc3c(nnn3C)c2=O)CC(C)O1 (stereo not drawn)
    0 | 9

Gathered by group, the entries above with a COOH group (4)
Values run as follows: NPYLR7 ag | NPYLR7 ag max-min
(11) C#CCNC(=O)C[C@@H]1O[C@H](CNCc2ccc(C(=O)O)cc2)[C@H]2OC(C)(C)O[C@H]21
    -3 | -11
(14) Cc1cc(C)cc(NC(=O)Cc2ccc(OC(C)(C)C(=O)O)cc2)c1
    28 | 11
(50) CCC(Sc1ccc2nnc(-c3cccnc3)n2n1)C(=O)O (stereo not drawn)
    -4 | -4
(67) CC(O)(CC(=O)NCC(=O)O)CC(=O)OC1C(O)CC2(C)C3=C(CCC2C1(C)C)C1(C)CCC(C(CO)CCC(O)C(C)(C)O)C1(C)C(O)C3 (stereo not drawn)
    -4 | -13

(next part)
Values run as follows: NPYLR7 ag | NPYLR7 ag max-min
(76) CN1CC2(CCN(C(=O)CCc3nc4ccccc4[nH]3)C2)OC1=O (stereo not drawn)
    16 | 12
(77) CNc1snc(C)c1C(=O)N1CCC(Oc2cc(C)ccc2C)CC1
    -12 | -16
(78) COc1c(C)cnc(CN(C)C(=O)c2ccc(Br)o2)c1C
    -6 | -7
(79) NC(=O)OCCNC(=O)c1cc2ccccc2oc1=O
    -2 | -7
(80) Cc1ccc(NC2=NC(C)(C)N=C(N)N2)c(C)c1
    16 | 7
(81) CCCc1cc(=O)[nH]c(SCCOc2ccc(Br)cc2)n1
    3 | 1
(82) CCOc1ccc(NC(=O)CSc2nnc(NC(=O)c3ccccc3C(F)(F)F)s2)cc1
    -6 | 4
(83) COC(=O)Nc1cccc[n+]1C
    -10 | -15
(84) COc1ccc(C(=O)N2CCSC23C(=O)N(Cc2ccccc2Cl)c2ccc(F)cc23)cc1 (stereo not drawn)
    7 | 9
(85) N#Cc1cccc(OC2CC3CCC(C2)N3C(=O)c2ccc(CSc3nccc(C(F)(F)F)n3)cc2)c1 (stereo not drawn)
    7 | -6
(86) CCOC(=O)C1(Cc2ccc(Cl)cc2)CCN(C(=O)c2cc3ccccc3o2)CC1
    16&-8 | 16&-13
(87) COc1cc(-c2cnc(NC(C)=O)cn2)ccc1O
    1 | 0
(88) O=S(=O)(NCCNc1ccc(Nc2cccnc2)nn1)c1ccccc1Cl
    -2 | -3
(89) c1ccc(C2=NN3C(C2)c2ccccc2OC32CCCC2)cc1 (stereo not drawn)
    0 | 0
(90) CCn1c(C2CCCN(C(=O)c3ccc4c(c3)nnn4C)C2)nn(C)c1=O (stereo not drawn)
    1 | -1

Record cards (already shown). Values in the order: NPYLR7 ag | NPYLR7 ag max-min
CCOC(=O)C1(Cc2ccc(Cl)cc2)CCN(C(=O)c2cc3ccccc3o2)CC1 as listed: 16&-8 | 16&-13
NCC1CC(=O)N(c2ccccc2)C1 (stereo not drawn) as listed: -2 | -1

Carrying on:
Values run as follows: NPYLR7 ag | NPYLR7 ag max-min
(91) Cc1ccccc1-n1c(SCc2nc(C(=O)NCCCN3CCOCC3)cs2)nnc1-c1cccnc1
    0 | 9
(92) Cn1c(CSc2nc3ccccc3s2)nnc1SCC(=O)NCc1ccccc1
    -6 | -9
(93) O=C(NCc1noc(C2CCCO2)n1)c1cccc2ccnn12 (stereo not drawn)
    22 | 13
(94) CCCOCCNC(=O)c1cc(N2CCN(Cc3ccccc3)CC2)nc2ccccc12
    19 | 29
(95) O=C(O)c1ccc(N2C(=O)C3C4C=CC(O4)C3C2=O)cc1 (stereo not drawn)
    15 | 14
(96) COc1cc(C(c2cc(Cl)c3cccnc3c2O)N2CCCC2)cc(OC)c1OC (stereo not drawn)
    3 | 1
(97) CC(NC(=O)c1c(F)cccc1Cl)c1ccc(Cl)s1 (stereo not drawn)
    1 | 2
(98) c1ccc(-n2cc(CN3CCCCC3c3nccs3)c(-c3ccc4c(c3)OCO4)n2)cc1 (stereo not drawn)
    -5 | -5
(99) COc1cccc(COC2CN(CC(C)C)C(=O)CN(C(=O)c3cccc(Cn4cccn4)c3)C2)c1 (stereo not drawn)
    3 | -8
(100) C/C(N[C@@H]1CSCC1O)=C1/C(=O)CC2[C@@H]1C2(C)C (stereo partly drawn)
    6 | 3
(101) CCc1c(C)nn(CCNc2nc(CCN)nc3ccccc23)c1C
    2 | 1
(102) Cc1c(Cl)cccc1NC(=O)Cn1nc2c(SCc3ccccc3)nccn2c1=O
    3 | 1

Compound activity from PubChem.
